From PubChem
FGF22 binding – binders of human FGF22 protein, primary screen, FGF22 synaptogenesis inhibitor project, biophysical, thermal shift, single point. Fibroblast growth factor 22 (Homo sapiens), Q9HCT0. recombinant FGF22 thermal shift, SYPRO orange fluorescence; percent of sucrose octasulfate shift, DMSO zero. calls only at 9.99 µM. actives 1.5% (n = 340,000). AID 651658, 2012;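 active = melting point raised past a set limit in the mean and every replicate; three in four hits are not shown here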
Target sequence (Q9HCT0 whole entry, looked up): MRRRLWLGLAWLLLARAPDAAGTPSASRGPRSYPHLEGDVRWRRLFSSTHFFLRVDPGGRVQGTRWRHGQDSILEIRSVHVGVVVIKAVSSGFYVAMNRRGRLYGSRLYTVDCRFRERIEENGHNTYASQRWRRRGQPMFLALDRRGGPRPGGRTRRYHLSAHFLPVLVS
HNF4A DNA FP – change in binding of human HNF4A to DNA, primary screen, biochemical, fluorescence polarization, FITC-DNA | actives 0.3% (n = 360,000) | 1 h | AID 1224865, 2016 | Hepatocyte nuclear factor 4-alpha (Homo sapiens), P41235 | activity change, % at 10 µM; in the data active = activity change above about 30%, passing the limit was not always enough;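 note: controls were the assay level and a saturating level of protein; the project sought stronger binding though the title names inhibitors; some compounds called inactive have numbers as strong as hits; positive values seem to mean higher polarization but the record does not say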
Target sequence (P41235 whole entry, looked up): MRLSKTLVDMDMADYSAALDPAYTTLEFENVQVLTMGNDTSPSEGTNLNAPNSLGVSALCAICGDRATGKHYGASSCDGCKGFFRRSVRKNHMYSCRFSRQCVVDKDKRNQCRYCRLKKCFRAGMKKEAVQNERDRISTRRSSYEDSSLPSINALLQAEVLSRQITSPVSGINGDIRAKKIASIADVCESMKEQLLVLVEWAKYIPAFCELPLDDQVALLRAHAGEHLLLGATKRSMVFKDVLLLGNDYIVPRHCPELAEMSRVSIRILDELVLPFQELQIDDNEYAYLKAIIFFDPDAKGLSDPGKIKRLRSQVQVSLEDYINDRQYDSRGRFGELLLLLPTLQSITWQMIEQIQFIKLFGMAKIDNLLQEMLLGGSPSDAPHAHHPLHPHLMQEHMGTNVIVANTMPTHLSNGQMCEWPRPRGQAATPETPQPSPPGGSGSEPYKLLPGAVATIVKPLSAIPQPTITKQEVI
* hit, by the source's call; i = inactive; · = no result given. These rows are one share of the data; count on the stated rates, not on these rows.

smiles | FGF22 binding | HNF4A DNA FP
CCOc1ccc(CCN2C(=O)C(=O)N([C@@H](CC(C)C)CN3CCC[C@H]3CN3C(=O)C(=O)NC[C@@H]3CC(C)C)C[C@@H]2Cc2ccc(O)cc2)cc1 | i | -4.9
COC(=O)[C@@]12C[C@@H](CC(=O)N3CCOCC3)C(=O)N(Cc3ccc4c(c3)OCO4)C1=CCC(C)(C)C2 | i | 3.3
COC(=O)[C@@]12C[C@@H](CC(=O)N3CCC(c4ccccc4)CC3)C(=O)N(Cc3ccc4c(c3)OCO4)C1=CCC(C)(C)C2 | i | -0.4
Sc1ccccc1N=Cc1cccs1 | i | 0.8
COc1cccc(C(NC(C)=O)c2nc(-c3cccc(C#N)c3)cs2)c1 (stereo unspecified) | i | -5.8
CCOCCCn1c(SCC(=O)NC2CCCCC2)nc2ccccc2c1=O | i | -0.3
COc1ccc(CNC(=O)Nc2nc(C(N)Cc3ccc(C(F)(F)F)cc3)cs2)cc1 (stereo unspecified) | i | 1.1
CN(C)Cc1csc(NC(=O)Nc2ccccc2C(C)(C)C)n1 | i | 4.2
O=C(Nc1ccc2c(c1)OCO2)c1cc(C2CCCCN2C(=O)c2ccc3ccccc3c2)on1 (stereo unspecified) | i | 0.4
CCCCCCN1C[C@@H](O)[C@H](n2cc(-c3ccc(F)cc3)nn2)C[C@@H]1c1ccc(C)cc1 | i | -5.2
Cc1c(N(C)S(=O)(=O)c2cccc(C(=O)NCc3cccnc3)c2)c(=O)n(-c2ccccc2)n1C | i | -2.9
Cc1ccc(Cc2c(-c3ccc(C)cc3)nc3ccc(Br)cn23)cc1 | i | 7.2
O=C(NCc1ccc(F)cc1)c1cc(C2CCCCN2C(=O)c2ccc3c(c2)CCO3)on1 (stereo unspecified) | i | -0.7
COc1cccc(Nc2nc(C(N)c3ccccc3Cl)cs2)n1 (stereo unspecified) | i | -1.0
COc1ccc2c(c1)C(CC(C)=O)N(c1ccc(-c3cnc(OC)nc3)cc1)C(c1ccsc1)=C2 (stereo unspecified) | i | 5.5

In a second layout: results already given.
COC(=O)[C@@]12C[C@@H](CC(=O)N3CCC(c4ccccc4)CC3)C(=O)N(Cc3ccc4c(c3)OCO4)C1=CCC(C)(C)C2
  FGF22 binding = i | HNF4A DNA FP = -0.4
CN(C)Cc1csc(NC(=O)Nc2ccccc2C(C)(C)C)n1
  FGF22 binding = i | HNF4A DNA FP = 4.2
CCCCCCN1C[C@@H](O)[C@H](n2cc(-c3ccc(F)cc3)nn2)C[C@@H]1c1ccc(C)cc1
  FGF22 binding = i | HNF4A DNA FP = -5.2
Cc1ccc(Cc2c(-c3ccc(C)cc3)nc3ccc(Br)cn23)cc1
  FGF22 binding = i | HNF4A DNA FP = 7.2

Record cards (already shown). Order of screens: FGF22 binding	HNF4A DNA FP
COc1cccc(Nc2nc(C(N)c3ccccc3Cl)cs2)n1 (stereo unspecified) across the screens: i	-1.0
O=C(NCc1ccc(F)cc1)c1cc(C2CCCCN2C(=O)c2ccc3c(c2)CCO3)on1 (stereo unspecified) across the screens: i	-0.7
COc1ccc(CNC(=O)Nc2nc(C(N)Cc3ccc(C(F)(F)F)cc3)cs2)cc1 (stereo unspecified) across the screens: i	1.1

(more compounds)
smiles | FGF22 binding | HNF4A DNA FP
CCCc1c(-c2cccc(Br)c2)ncn1Cc1cccc(-c2ccccc2)c1 | i | -4.0
CC(=O)NC(C)(c1ccccc1)c1nc(-c2csc3ccccc23)cs1 (stereo unspecified) | i | -2.5
COc1cccc(C(NC(C)=O)c2nc(-c3ccc(OC)nc3)cs2)c1 (stereo unspecified) | i | 0.9
CCOc1ccccc1NC(=O)C1CCCN(S(=O)(=O)c2ccc3c(c2)CCCN3C(C)=O)C1 (stereo unspecified) | i | 0.7
COC(=O)c1cccc(NC(=O)CCN2C(=O)NC(C)(C)C2=O)c1 | i | 2.9
C[C@H](NC(=O)c1ncn2c1C(=O)NC[C@@H]2C)C(=O)OC(C)(C)C | i | -3.3
CCc1nc2ccc(C(=O)N(C)Cc3ccco3)cn2c1N(CC)Cc1cccc(Br)c1 | i | -0.1
CCCS(=O)(=O)NC(=O)C1(C)CCN(C(=O)c2cc(C)nn2C(C)(C)C)C1 (stereo unspecified) | i | 3.0
OC(c1ccc(F)cc1)c1nc(-c2cccc(F)c2)cs1 (stereo unspecified) | i | -1.8
CC1=C(C(=O)N(C)C)CC(CC(=O)NCc2cccc3ccccc23)C(=O)N1Cc1ccccc1 (stereo unspecified) | i | -0.8
CN(C)CC#Cc1cccc(-c2nc(C(=O)O)cc3c2[C@@H](CCO)N(S(=O)C(C)(C)C)C3)c1 (stereo partly specified) | i | 2.9
COc1ccccc1-c1csc(C(C)(NC(C)=O)c2ccccc2)n1 (stereo unspecified) | i | 0.5
C[C@@H]1CN([C@@H](C)CO)S(=O)(=O)c2ccc(C#Cc3cccc(F)c3)cc2O[C@@H]1CN(C)CC1CC1 | i | -0.3
CCOC(=O)N(C)C[C@@H]1OCc2cnnn2CCCC(=O)N([C@H](C)CO)C[C@H]1C | i | -1.9
Cc1ccc(S(=O)(=O)N2C[C@H]3[C@H]4C(=O)N(C)C(=O)[C@H]4CC(=O)[C@H]3[C@@H]2c2ccccc2Cl)cc1 | · | 0.3

Further entries.
smiles | FGF22 binding | HNF4A DNA FP
CC(=O)c1cccc(-c2ccnc3c2CC(C(=O)Nc2cccc(N(C)C)c2)O3)c1 (stereo unspecified) | i | 2.0
Cc1cccc(NC(=O)CN2CCN(C(=O)c3cc(C4CC4)nn3-c3ccccc3)CC2)c1C | i | 1.4
CCCNC(=O)C1(C)CCN(C(=O)/C=C/c2ccccc2)C1 (stereo unspecified) | i | 0.8
Cc1noc(C)c1-c1ccc(C(=O)NCc2ccco2)c2occc12 | i | 1.3
NS(=O)(=O)c1ccc(CCNc2nn3c(-c4ccc(F)c(Cl)c4)cnc3s2)cc1 | i | -5.3
CC1=C(C(=O)N(C(C)C)C(C)C)CC(CC(=O)NCc2ccco2)C(=O)N1CCCN1CCCC1=O (stereo unspecified) | i | 2.5
CCc1ccc2c(F)cccc2n1 | i | 0.8
OC(c1ccc(F)cc1)c1nc(-c2ccccc2)cs1 (stereo unspecified) | i | -1.9
CC(C)C[C@H]1CN(CCCC[C@@H]2CNC(=O)C(=O)N2CC2CCCCC2)C(=O)C(=O)N1Cc1ccccc1 | i | -2.3
COc1ccc(CC(=O)OCC(=O)N2c3ccccc3CC2C)cc1OC (stereo unspecified) | i | 2.3
C[C@H](CO)N1C[C@H](C)[C@H](CN(C)C(=O)Nc2ccc(C(F)(F)F)cc2)Oc2ncc(-c3cccnc3)cc2C1=O | i | 1.5
O=C(CCC1CCN(Cc2nccs2)CC1)Nc1ccccc1 | i | 1.0
Cc1cccc(CN2CCN(C3CN(Cc4cn(Cc5ccc(Cl)cc5)nn4)S(=O)(=O)C3)CC2)c1 (stereo unspecified) | i | -3.5
O=C1CC[C@@H](C(=O)N2CSC[C@@H]2C(=O)Nc2ccc(C(F)(F)F)cc2)N1 | i | -0.1
CC1(C(=O)NCc2cccnc2)CCN1C(=O)c1cccc(F)c1 (stereo unspecified) | i | -10

The list continues:
smiles | FGF22 binding | HNF4A DNA FP
COCc1cn(-c2nc3ccccc3s2)nn1 | i | 4.0
COCCCNC(=O)c1csc([C@@H]2O[C@H](CO)[C@H](O)[C@H](O)[C@H]2O)n1 | i | -5.3
CCNC(=O)C1(C)CCN(C(=O)c2c(F)cccc2F)C1 (stereo unspecified) | i | 1.4
CCCCCCN1CCN(C2CN(Cc3cn(Cc4ccc(Cl)cc4)nn3)S(=O)(=O)C2)CC1 (stereo unspecified) | i | 2.1
COc1ccc(-c2ccc(C(=O)N3CCN(C)CC3)c3occc23)c(C)c1 | i | 2.1
CN(Cc1ccccc1)C(=O)c1ccc(Nc2nc(C(N)Cc3ccc(C(F)(F)F)cc3)cs2)nc1 (stereo unspecified) | i | 1.6
O=[N+]([O-])c1ccc(NN=C(C2CC2)C2CC2)c([N+](=O)[O-])c1 | i | 2.4
ON=C(c1ccccc1)c1ccc2c3c(cccc13)CC2 | i | -1.6
COc1ccc(NC(=O)C(c2ccncc2)n2c(=O)c(-c3cc4ccccc4[nH]3)nc3ccccc32)cc1 (stereo unspecified) | i | 2.6
CC(=O)NC(c1ccccc1)c1nc(-c2ccccc2C)cs1 (stereo unspecified) | i | -0.9
COc1cc(/C=C2\C(=O)N(c3cccc(C(=O)O)c3)N=C2C)ccc1OCc1ccccc1 | · | 1.4
CCCS(=O)(=O)NC(=O)C1(C)CCCN(C(=O)c2cc(C)on2)C1 (stereo unspecified) | i | -1.2
CN(C)C(=O)c1cccc(-c2ccc3nncn3c2)c1 | i | 2.5
CNC(=O)c1ccc(CN(C)C(=O)c2cccc(S(=O)(=O)N3CCc4ccccc4C3)c2)cc1 | i | 1.2
CCn1nnnc1-c1ccc(OC)c(S(=O)(=O)Nc2ccccc2OC)c1 | i | -0.9

(cont.)
smiles | FGF22 binding | HNF4A DNA FP
COc1ccc(/C=C/C(=O)c2c(O)cc(OC)cc2OC)cc1 | i | 4.8
O=C(C1=NOC2(C1)C(=O)N(Cc1ccccc1)c1ccccc12)N1CCOCC1 (stereo unspecified) | i | -3.7
Cc1cc(C)c(C(O)c2ncc(-c3cccc(F)c3)[nH]2)c(C)c1 (stereo unspecified) | i | 2.6
C[C@@H]1CN([C@H](C)CO)C(=O)CCCn2nncc2CO[C@H]1CN(C)C(=O)c1cc(-c2ccccc2)on1 | i | -0.9
CCOC(CNC(=O)c1[nH]c(C(F)(F)F)nc1-c1ccccc1)OCC | i | -2.6
CNc1cnc(-c2ccc(C(=O)N3CCOCC3)cc2)cn1 | i | -5.7
Fc1cccc(F)c1C(Nc1nncs1)Nc1nncs1 | i | 0.3
COC(=O)[C@@]12C[C@@H](CC(=O)NCCCN3CCCC3=O)C(=O)N(Cc3ccco3)C1=CCC(C)(C)C2 | i | -0.3
COCCNC(=O)C1(C)CCCN(Cc2cc(C)ccc2C)C1 (stereo unspecified) | i | -0.7
COc1ccc(-c2nc3ccc(Cl)cn3c2Cc2ccsc2)cc1OC | i | 3.0
CCOc1ccc(C(=O)CN2C(=O)NC3(CCCc4ccccc43)C2=O)cc1 (stereo unspecified) | i | 4.0
O=C(Nc1ccc2c(c1)OCCO2)C(C1CC1)N1CCN(C/C=C/c2ccccc2)CC1 (stereo unspecified) | i | 0.1
Cc1cc(Br)cn2c(Cc3cccc(F)c3)c(-c3cccc(Br)c3)nc12 | i | 2.5
N#Cc1ccc(C(C(=O)NCc2ccccc2)n2c(=O)c(-c3ccco3)nc3ccccc32)cc1 (stereo unspecified) | i | 6.0
CC1(C)Cc2c(cnn2-c2ccc(F)cc2)C(NC(=O)C2=CC(=O)CC(C)(C)O2)C1 (stereo unspecified) | i | -0.5

Carrying on.
smiles | FGF22 binding | HNF4A DNA FP
COc1cccc(C(=O)C(=O)N2CCN(C(=O)OCc3ccccc3)CC2)c1 | i | -2.4
CCNc1nc(-c2sc(NC(=O)C(C)(C)C)nc2C)c(-n2cc(-c3ccccc3)nn2)s1 | i | -2.3
Cn1nnnc1SCCNC(=O)C1CCC(=O)N(Cc2cccc(C(F)(F)F)c2)C1 (stereo unspecified) | i | -0.7
C=CCn1c(O)c(N=Nc2ccccc2[N+](=O)[O-])c2ccccc21 | i | -2.7
CCCc1cnc(Nc2nc(C(N)Cc3ccc(C(F)(F)F)cc3)cs2)nc1 (stereo unspecified) | i | 0.9
CN(CCOc1ccccc1)C(=O)c1cc(S(=O)(=O)N2CCOCC2)c(Cl)cc1Cl | i | -7.6
CC(C)c1ccc(S(=O)(=O)N2CCN(C(=O)CCc3nc4ccccc4c(=O)[nH]3)CC2)cc1 | i | 0.8
CC(C)c1ccc(NC(=O)C2Cc3c(-c4ccco4)ccnc3O2)cc1 (stereo unspecified) | i | 0.6
CC(C)C[C@H]1CN([C@@H](Cc2ccccc2)CN2CCC[C@H]2CN2C(=O)C(=O)NC[C@@H]2Cc2ccc(O)cc2)C(=O)C(=O)N1CCc1ccccc1 | i | -0.9
COC(=O)C[C@@H]1CC[C@@H](NC(=O)C2CCC2)[C@@H](CO)O1 | i | 0.6
Nc1ccn([C@@H]2O[C@H](C(=O)N3CCN(Cc4ccccn4)CC3)[C@@H](O)[C@H]2O)c(=O)n1 | i | -1.1
CC1(C(=O)Nc2cccc(C#N)c2)CCN1C(=O)C/C=C/c1ccccc1 (stereo unspecified) | i | 0.5
COc1cc(OC)cc(-c2noc(-c3csc([C@@H]4O[C@H](CO)[C@H](O)[C@H](O)[C@H]4O)n3)n2)c1 | i | 6.5
COc1ccccc1NC(=O)Nc1nc(C(N)CC(C)C)cs1 (stereo unspecified) | i | -2.4
O=c1[nH]c(=S)[nH]c2c1C(c1ccc(F)cc1)OC(CCc1ccccc1)C2 (stereo unspecified) | i | 4.7

Remaining list, next part
smiles | FGF22 binding | HNF4A DNA FP
COc1ccc(-c2csc(NC(=O)CCNC(=O)c3ccco3)n2)cc1 | i | 0.1
CC1=C(C(=O)N(C)C)CC(CC(=O)NCCc2ccccn2)C(=O)N1Cc1ccccc1 (stereo unspecified) | i | -0.9
CCOc1ccc(/C=N/NC(=O)c2ccc3nc[nH]c3c2)cc1OC | i | 2.6
Cc1ccc(C2CC(c3ccccc3)=NN2c2ccc(S(N)(=O)=O)cc2)cc1 (stereo unspecified) | i | 1.1
COc1ccc(OC)c(NCCN2C(=O)c3ccccc3C2=O)c1 | i | 2.6
CCC1NC(=O)c2cccnc2-n2c1nc1cc(OC)c(OC)cc1c2=O (stereo unspecified) | i | 2.9
CC(C)NC(=O)C1(C)CCN1C(=O)c1cccc(Cl)c1 (stereo unspecified) | i | -3.7
